VDR inhibitor – Inhibitors of the vitamin D receptor (VDR): qHTS; Vitamin D3 receptor (Homo sapiens), P11473; VDR-SRC2-3 peptide fluorescence polarization, 2 h; Potency, µM, without a hit: max response, negative = inhibition, most hits filed as inhibitors; 400,000 compounds, 0.93% hits; AID 504847, 2011; active = well fitted inhibition curve with a large enough effect; inconclusive = small, poorly fitted or top-dose-only effect, or another doubt; inactive = no such curve, though single readings can be large or run the other way; note: series mostly up to about 120 µM
Target sequence (P11473 whole entry, looked up): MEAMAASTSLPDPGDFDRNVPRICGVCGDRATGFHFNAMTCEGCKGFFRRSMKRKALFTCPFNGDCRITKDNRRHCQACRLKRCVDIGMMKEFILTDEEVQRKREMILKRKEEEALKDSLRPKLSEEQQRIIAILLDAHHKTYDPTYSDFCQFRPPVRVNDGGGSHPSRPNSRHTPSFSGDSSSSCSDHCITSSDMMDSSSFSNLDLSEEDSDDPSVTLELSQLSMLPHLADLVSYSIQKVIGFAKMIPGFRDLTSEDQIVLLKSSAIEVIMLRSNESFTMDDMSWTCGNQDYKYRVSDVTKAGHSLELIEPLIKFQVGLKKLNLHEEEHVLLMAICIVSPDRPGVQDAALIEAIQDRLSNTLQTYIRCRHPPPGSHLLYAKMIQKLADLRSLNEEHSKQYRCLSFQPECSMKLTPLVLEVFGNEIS
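Measured by FP: displacement of SRC2-3 coactivator peptide from VDR by library compounds, following a two-hour ambient incubation.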
An asterisk follows results filed as active; ? = inconclusive; & = joins results of further samples. % is set by controls: 0 for no effect and ±100 for the full control effect; potency is the fitted concentration of half-maximal effect. The list is partial (hit frequency here may not be typical).

VDR inhibitor | compound
-12% | NC(=O)[C@H](Cc1cc2ccccc2s1)NC(=O)[C@@H]1CC2(CC(c3cccc(NC(=O)[C@@H]4CCC(=O)N4)c3)=NO2)CN1C(=O)/C=C/Sc1ccccc1 (some centres not stated)
8% | Cc1cnc(NC(=O)Cc2ccc(C)c(C)c2)s1
2% | CCN(CC)c1nc2cc(C)ccc2cc1/C=C(\C#N)C(N)=O
-7% | N/C(=N\OC(=O)N1c2ccccc2Sc2ccccc21)c1ccc(Br)cc1
11% | O=C1c2ccccc2C(=O)N1c1nc(-c2cccs2)cs1
-2% | Cc1c(NS(=O)(=O)c2cc(C(=O)NCc3ccco3)cc(Cl)c2Cl)c(=O)n(-c2ccccc2)n1C
-1% | O=C(C1CCN(c2ccc(N3CCOCC3)nn2)CC1)N1CCc2ccccc2C1
7% | CN1CCN(c2cc3c(cc2F)c(=O)c(C(=O)O)cn3CCF)CC1
-5% | COc1ccc(-c2nc(CSCC(=O)NCCCN3CCCC3=O)c(C)o2)cc1
-19% | Fc1cccc(NC(=S)Nc2cccc3ccccc23)c1
0% | CCOc1cc(C(=O)NC)cc(Br)c1OCc1ccccc1
-23% | O=C(O)c1ccccc1C=NN=C1c2ccccc2-c2ccccc21
-5% | CCn1nc(C)c(CN2CCC(n3nccc3NC(=O)CCCc3ccccc3)CC2)c1C
8% | Cc1ccc(CNC(=O)CSc2ccc(-c3ccccn3)nn2)cc1
1% | COc1ccccc1-n1c(C)c2c(OC)cccc(=O)c2c1C
6% | CN1CCN(C(=O)Cn2ncc3c([nH]c4ccccc43)c2=O)CC1
-8% | NC(=O)COC(=O)/C=C/c1cccc(Br)c1
8% | O=C1N(Cc2cccc(Cl)c2)C[C@@H]2C[C@@H](c3cccn3-c3cccnc3)N3CCC[C@@]123
? | COc1ccc(CNC(=O)c2c(-c3c(F)cccc3Cl)noc2C)cc1
5% | CC(C)(C)NC(=O)c1cccc(NC(=O)c2ccco2)c1
-8% | C/C(=N/NC(=O)c1ccoc1C)c1ccc(NC(=O)c2ccncc2)cc1
9% | O=S(=O)(c1ccc(Br)s1)N1CCC(Cc2ccccc2)CC1
-22% | Cc1nc(SCC(=O)N2c3ccccc3NC(=O)CC2C)c2c(C)c(C)sc2n1 (configuration not stated)
12% | CCOc1ccc(NS(=O)(=O)c2ccc(C(=O)N(C)CC(=O)Nc3ccccc3Br)cc2)cc1
14% | O=C(COC(=O)c1cnccn1)c1ccc2ccccc2c1
-8% | CC(C)NC(=O)C(Cc1ccccc1)N1C(=O)c2ccccc2C1=O (configuration not stated)
-5% | Cc1ccccc1-n1c(C)nnc1SCC(=O)NC1CCCc2ccccc21 (configuration not stated)
-8% | COc1ccc(N(CC(=O)NCc2ccc(C)cc2)S(=O)(=O)c2ccccc2[N+](=O)[O-])c(OC)c1
1% | CCOC(=O)c1ccc(NC(=O)N2CC3CCCN3c3ccccc32)cc1 (configuration not stated)
6% | CN(c1ccccc1)c1nc(N)c([N+](=O)[O-])c(N2CCCCC2)n1
-12% | CCOc1ccc(S(=O)(=O)Nc2ccc3c(c2)OCO3)c2cccnc12
7% | COc1ccc(-c2cc(C(F)F)n3ncc(C(=O)N4CCc5ccccc5C4)c3n2)cc1
-17%&16% | Cc1ccccc1C(=O)c1cccn1CC(=O)NCc1cccc(Cl)c1
18% | Cc1ccccc1C(=O)NNC(=O)C(C)N1C(=O)c2ccccc2C1=O (configuration not stated)
-3% | O=[N+]([O-])c1ccc(-c2nc(Nc3cccc(O)c3)c3ccccc3n2)cc1
-20% | CCCc1[nH]nc2c1C(c1ccc(OC)c(CSC3=NCCS3)c1)C(C#N)=C(N)O2 (configuration not stated)
1% | CCNc1ncc2nc(-c3ccc(OC)cc3)c(=O)n(Cc3ccc(F)cc3)c2n1
2% | O=C(COc1ccc2ccc(=O)oc2c1)N1CC[C@@]2(O)CCCC[C@H]2C1
-23% | Cn1c(=O)c2cc(S(=O)(=O)NC(Cc3ccccc3)C(=O)NCc3ccco3)ccc2n(C)c1=O (configuration not stated)
-7% | CC(C)CCN(C)C1CCN(C(=O)Nc2c(F)cccc2F)CC1

Six compounds out of the list above, ordered by the value under VDR inhibitor, high to low.
VDR inhibitor | compound
1% | CCNc1ncc2nc(-c3ccc(OC)cc3)c(=O)n(Cc3ccc(F)cc3)c2n1
-3% | O=[N+]([O-])c1ccc(-c2nc(Nc3cccc(O)c3)c3ccccc3n2)cc1
-7% | CC(C)CCN(C)C1CCN(C(=O)Nc2c(F)cccc2F)CC1
-12% | CCOc1ccc(S(=O)(=O)Nc2ccc3c(c2)OCO3)c2cccnc12
-20% | CCCc1[nH]nc2c1C(c1ccc(OC)c(CSC3=NCCS3)c1)C(C#N)=C(N)O2 (configuration not stated)
-23% | Cn1c(=O)c2cc(S(=O)(=O)NC(Cc3ccccc3)C(=O)NCc3ccco3)ccc2n(C)c1=O (configuration not stated)

Carrying on:
VDR inhibitor | compound
-23% | OC(CNCCNc1ncccc1C(F)(F)F)Cn1ccc2ccccc21 (configuration not stated)
14% | CC(=O)N1CCN(S(=O)(=O)c2ccc(C)cc2)C1C(C)C (configuration not stated)
-8% | CC1CCCC=CC2CC(OC(=O)CN(C)C)CC2C(O)C=CC(=O)O1 (configuration not stated)
-3% | O=C(NC1CCCC1)C1c2ccccc2C(=O)N1C1CCCCC1 (configuration not stated)
0% | c1ccc(C2=Nn3c(nnc3-c3cccs3)SC2)cc1
18% | CC(=O)[C@@]1(O)CCC2C3C=CC4=CC(=O)CC[C@]4(C)C3CC[C@@]21C (some centres not stated)
0% | COc1ccc(N2CCN(c3nc4ccc(C(=O)c5ccccc5)cc4n4cnnc34)CC2)cc1
-16% | CC(C)[C@H](NC(=O)C1CCN(C(=O)[C@@H]2CCCN2)CC1)C(=O)NCc1ccc(F)cc1
-10% | COc1ccc(Br)cc1CNC(=O)Cn1nc(C)n2cccc2c1=O
11% | CCNc1nnc(CCn2nc(C)c(Br)c2C)s1
-11% | CCN(C(=O)COC(=O)c1nc2nc(C)cc(C)n2n1)C1CCCCC1
23% | O=C(Nc1ccc2c(c1)OCCO2)c1cccc2nc3ccccc3nc12
-8% | CCOC(=O)c1cc2c(ccn2-c2ccc(F)cc2)n1CC(=O)N(CC)CC
2% | O=C(NCc1ccc(F)cc1Cl)c1ccc(CSCc2ccccc2Cl)o1
1% | Cc1ccn2nc(C(=O)OCC(=O)N(CC(C)C)C3CCS(=O)(=O)C3)nc2n1 (configuration not stated)
4% | COc1ccc(C(=O)NCC(c2ccco2)S(=O)(=O)c2ccc(F)cc2)cc1 (configuration not stated)
4% | O=C(NCC(c1cccs1)N1CCOCC1)c1cc2ccccc2o1 (configuration not stated)
23% | CCCCN(CCCC)S(=O)(=O)c1ccc2oc(C(=O)N3CCOCC3)c(C)c2c1
13% | Cc1ccc2c(CN3CCOCC3)cc(=O)oc2c1C
-1% | COc1ccc(C(=O)CSc2n[nH]c(-c3ccncc3)n2)cc1[N+](=O)[O-]
14% | CCn1c(NCc2ccccn2)nc2c1c(=O)n(C)c(=O)n2C
6% | O=C(NC1CCCCC1)N(Cc1ccccc1)Cc1ccco1
10% | O=[N+]([O-])c1cccc(C([O-])=C(C(=S)Nc2cccc3ccccc23)[n+]2ccccc2)c1
-10% | Cc1ccc(NC(=O)C(=O)NCCCN2CCCC2=O)c(C)c1
-6% | CCn1c2c(c(=O)n3ncc(C(=O)Nc4ccc(Cl)cc4C)c13)CN(Cc1ccc(OC)cc1)CC2
18% | Cn1c(CSc2nc3ccccc3s2)nc2ccccc21
-1% | COc1cc(OC)c2c(-c3ccccc3)cc(=O)oc2c1C(CCN1CCCC(C)C1)c1ccc(N(C)C)cc1 (configuration not stated)
35% | Nc1nc(N2C(=O)C3CC=CCC3C2=O)nn1-c1ccccc1 (configuration not stated)
-10% | Cc1cccc(N=C2SC(C)CN2C(=O)CN2C(=O)NC3(CCCC3)C2=O)c1 (configuration not stated)
-20% | Cc1c(C)c2c(OCC(=O)N[C@@H](C(=O)O)c3ccccc3)cc3c(c2oc1=O)CCC(C)(C)O3
-8% | CCN1C(=O)c2ccccc2S(=O)c2ccc(C(=O)N3CCOCC3)cc21 (configuration not stated)
1% | COc1ccc(OC)c2sc(N(CCN(C)C)C(=O)c3cc(Cl)sc3Cl)nc12
1% | Cc1ccc(Cn2nnc3c(=O)[nH]c(C4CCCN(C(=O)Nc5ccc(F)cc5)C4)nc32)cc1 (configuration not stated)
-10% | COc1cc(OC)cc(C(=O)NCC(C)NC(=O)c2cc(OC)cc(OC)c2)c1 (configuration not stated)
3%&-5% | C[C@@H](N)C(=O)O
3% | Nc1ccc2nc(N)sc2c1
0% | O=C(O)CC1=C(Nc2ccccc2)C(=O)N(c2ccccc2)C1c1ccc(F)cc1 (configuration not stated)
28% | Cc1ccc(N2C(=O)CCC2(C(N)=O)c2ccccc2)cc1 (configuration not stated)
10% | COc1cccc(C(=O)NC(C)c2cccc3ccccc23)c1OC (configuration not stated)
-5% | CC1CCCN(CCCN2C(=O)C3C(C(=O)Nc4cccc(Cl)c4)C4C=CC3(O4)C2C(=O)NC2CCCCC2)C1 (configuration not stated)

Compounds from the list above with a COOH group (5):
VDR inhibitor | compound
7% | CN1CCN(c2cc3c(cc2F)c(=O)c(C(=O)O)cn3CCF)CC1
-23% | O=C(O)c1ccccc1C=NN=C1c2ccccc2-c2ccccc21
-20% | Cc1c(C)c2c(OCC(=O)N[C@@H](C(=O)O)c3ccccc3)cc3c(c2oc1=O)CCC(C)(C)O3
3%&-5% | C[C@@H](N)C(=O)O
0% | O=C(O)CC1=C(Nc2ccccc2)C(=O)N(c2ccccc2)C1c1ccc(F)cc1 (configuration not stated)

Remaining list, next part:
VDR inhibitor | compound
-7% | CCC1CCc2sc(C(=O)NCC3CCCO3)cc2C1 (configuration not stated)
6% | CCc1nc(SC)ncc1C(=O)N1CCN(c2cc(Cl)ccc2C)CC1
0% | O=C(CN(Cc1cccs1)C(=O)CNC(=O)c1ccco1)NC1CCCCC1
2% | COc1ccc(-c2sc(Nc3ccccc3)n[n+]2-c2ccccc2)cc1Br
-8% | N#C/C(=C/c1ccc(O)c(O)c1)C(=O)OC/C=C/c1ccccc1
-33% | C[C@]12c3[nH]c4ccc(Cl)cc4c3CCN1C(=O)[C@@H](CC(=O)NCCCn1ccnc1)C[C@@H]2C(=O)N1CCOCC1
-3% | CC1(C)CC(=O)C=C(c2ccc3ncccc3c2)C1
-3% | CCN(CC(=O)N1CCCC1)S(=O)(=O)c1ccccc1
15% | COc1ccc(NC(=O)c2ccc(-c3nc(COc4ccccc4)c(C)o3)cc2)cc1
-4% | COC(=O)c1ccc(Cl)c(NC(C)=O)c1
1%&9% | CCCCCCCCCCCCCCC[C@@H](O)[C@H](CO)NC(C)=O
9% | COc1cc(NS(=O)(=O)c2ccc(NC(=O)c3ccco3)cc2)nc(OC)n1
-11% | COc1ccc(C(=O)Nc2nc(-c3ccc(OC)cc3)c(-c3ccc([N+](=O)[O-])cc3)s2)cc1
-1% | Cc1[nH]n(-c2ccccc2)c(=O)c1Sc1ccc(Cl)cc1
-9% | Cc1ccc(Nc2nnc(SCC(=O)NCC3CCCO3)s2)cc1 (configuration not stated)
14% | c1ccc(-c2ccc(SCc3cccnc3)nn2)nc1
17% | Cc1cccc(OCCCSc2nc3ccccc3[nH]2)c1
-5% | Cc1c(OCc2ccccc2)c(=O)ccn1Cc1ccccc1
-1% | CCSc1nnc(NC(=O)CSc2nc3c(c(=O)n2CC)SC(C)C3)s1 (configuration not stated)
-93% | N#C/C(=C\c1ccc(N2CCOCC2)o1)c1ccccc1
17% | COc1ccc(CCNC(=O)/C=C/c2cc(OC)c(OC)c(OC)c2)cc1OC
1% | COCc1cc(CN(C)C(=O)C2CCC(=O)N(Cc3cccc(OC)c3)C2)[nH]n1 (configuration not stated)
-22% | Cc1ccc(C(=O)Nc2ccc3c4c(cccc24)CC3)cc1[N+](=O)[O-]
-3% | CCC1=NN2C(=N)/C(=C\c3cccn3-c3ccc(C)cc3C)C(=O)N=C2S1
27% | Cc1cc(C)n(NC(=S)NC2CCCC2)c(=O)c1C#N
1% | Cc1cccc(Nc2nc(N)nc(CN3CCN(c4ccccc4)CC3)n2)c1
-15% | Cn1c(=O)c2c(nc(OCc3cccnc3)n2Cc2ccccc2)n(C)c1=O
11% | Cc1ccc([N+](=O)[O-])cc1NC(=O)CSc1nnc(C)n1CC1CCCO1 (configuration not stated)
-7% | Oc1ccccc1CNCCCNCc1ccccc1O
-14% | Cc1onc(-c2ccccc2)c1C(=O)N1CCN(S(=O)(=O)c2ccccc2C(F)(F)F)CC1
5% | CN1CN(C)c2ccc([N+](=O)[O-])c3cccc1c23
-3% | O=C(O)[C@H]1NCCC[C@H]1C(=O)O
-3% | Cc1cc(NC(=O)CCCC(=O)OCC(F)(F)C(F)F)cc(C)c1C(=O)O
-3% | Cc1cc(C(=O)O[C@H]2[C@H](C)NS(=O)(=O)[C@H]3C[C@@H]4C=C[C@]23O4)cc([N+](=O)[O-])c1
4% | Cc1ccc(OCc2ccc(C(=O)Nc3cc(C)on3)o2)c([N+](=O)[O-])c1
? | COc1ccccc1C1CC(=O)Oc2cc3c(cc21)OCO3 (configuration not stated)
-5% | CC(C)(C)C(=O)O/N=C(\N)COc1cccc(Cl)c1
12% | CC(=O)CC(=O)Nc1nc(C)cc(C)n1
-1% | CCOC(=O)C1CCCN(C(=O)C2CCN(Cc3nc(-c4ccc(Cl)cc4)oc3C)CC2)C1 (configuration not stated)
-5% | CCOC(=O)N1CCN(C(=O)c2c(Cl)cnn2C)CC1
-2% | COc1ccc(-c2nc3cnc(N(C)C)nc3n(C[C@H]3CCCO3)c2=O)cc1
-2% | CCc1cccc(CC)c1NC(=O)COC(=O)CCc1cc(OC)c(OC)c(OC)c1
-3% | COC(=O)C/C=C1\c2ccc3c(c2[C@@H](OC)[C@@H]1C)OCO3

Screening results: PubChem, National Center for Advancing Translational Sciences (NCATS)
